Screening results (PubChem BioAssay)
StopGo RLuc = FMDV 2A StopGo reporter, Renilla signal. AID 1745857. hit rate 0.32% among 120,000. Potency, µM (highest dose often 57.5 µM), inactives show at the highest dose signal change, negative = less light. HEK cells with a luciferase reporter of 2A StopGo recoding; active means well fitted falling curve with a large enough effect; inconclusive means small, poorly fitted or top-dose-only effect; inactive means no such curve, though single readings can be large or run the other way; note: nearly all actives have a fitted effect of over 55% in size; overnight with compound
2A firefly = FMDV 2A StopGo reporter, firefly signal | HEK cells with a luciferase reporter of 2A StopGo recoding | Potency, µM (series often up to 57.5 µM), inactives show top-dose signal change, negative = less light | hit rate 0.23% among 120,000 | AID 1745856; active = well fitted falling curve with a large enough effect; inconclusive = small, poorly fitted or top-dose-only effect; inactive = no such curve, though single readings can be large or run the other way; note: nearly all actives have a fitted effect of over 60% in size; overnight with compound
The depositor's hits bear a star; [ ] = remark or other dose. % is set by controls: 0 for no effect and ±100 for the full control effect; potency is the fitted concentration of half-maximal effect.

CCOC(=O)c1c(-c2ccccc2)oc2ccc(NS(=O)(=O)c3ccc(C(C)C)cc3)cc12 was read as StopGo RLuc 131%[activator] and 2A firefly -6%.
For CCOc1ccc(NC(=O)Cn2c(=O)n(CCCC(=O)NCc3ccc4c(c3)OCO4)c(=O)c3ccccc32)cc1 the results were StopGo RLuc -8% and 2A firefly -7%.
CCc1ccccc1NC(=O)c1cc(S(=O)(=O)N2CCCC2)cn1C was read as StopGo RLuc -1% and 2A firefly -16%.
Screening Cc1ccc(S(=O)(=O)N2CCC(N3CCN(Cc4ccccc4)C(=O)C3=O)CC2)cc1C returned StopGo RLuc -3% and 2A firefly -1%.
For O=C(COc1ccc2c(=O)c(-c3ccc(Cl)cc3)coc2c1)Nc1nccs1 the results were StopGo RLuc -7% and 2A firefly 17%.
For COc1ccc(-c2cc(=O)oc3cc(OC(C)C(=O)O)ccc23)cc1 (stereo not given) the results were StopGo RLuc 0% and 2A firefly 29%.
`Cc1cccc(NC(=O)Cn2c(C(F)(F)F)nc3ccccc32)c1C` gave StopGo RLuc -7% and 2A firefly 13%.
For CC1(C)CC(NC(=O)/C=C/C(=O)NC2CC(C)(C)NC(C)(C)C2)CC(C)(C)N1 the results were StopGo RLuc 1% and 2A firefly 8%.
Cc1cccc(C(C)C)c1NC(=O)COc1ccc(C(=O)Nn2c(C)ccc2C)cc1 was read as StopGo RLuc -18% and 2A firefly -20%.
For O=C(c1ccccc1)C1CCN(C(=O)/C=C/c2ccc(F)cc2)CC1 the results were StopGo RLuc -9% and 2A firefly 63%[activator].
COc1ccc(-c2ccc(NS(=O)(=O)c3cccc(C)c3)cc2)nn1 was read as StopGo RLuc 223%[activator] and 2A firefly -3%.
Screening COc1ccc(Cn2c(C(=O)O)c(CNCc3ccc(SC)cc3)c3ccc(OC)cc32)cc1 returned StopGo RLuc 78%[activator] and 2A firefly 29%.
`CCN1CCN(c2ccc(C(=O)OC)cc2NC(=O)COc2ccc(C(C)(C)C)cc2)CC1` gave StopGo RLuc 20% and 2A firefly 3%.
CCN(c1ncnc2c1c(-c1ccccc1)cn2-c1ccccc1)C1CCCCC1 was read as StopGo RLuc -17% and 2A firefly -21%.
Screening CN(C)CCCNc1nc(-c2ccc(Cl)cc2)c(CC(=O)O)s1 returned StopGo RLuc -16% and 2A firefly -10%.
Screening Cc1ccccc1Cn1cc(CN2[C@H](C)COc3cc(Br)ccc3S2(=O)=O)nn1 returned StopGo RLuc 26% and 2A firefly -5%.
Screening Nc1nccnc1C(=O)NCc1ccc(NC(=O)c2ccco2)cc1 returned StopGo RLuc -5%[1.06 µM] and 2A firefly -22%.
For CCN(CCCNC(=O)Cn1ncc2c3ccccc3n(C)c2c1=O)c1cccc(C)c1 the results were StopGo RLuc -4% and 2A firefly -7%.
CCOc1ccc(NC(=O)CSc2nc3ccccc3c(=O)n2CC2CCCO2)cc1 (stereo not given) was read as StopGo RLuc 16% and 2A firefly 4%.
COc1ccc(CCNC(=O)c2ccc3c(c2)N(Cc2ccccc2F)C(=O)c2ccccc2S3=O)cc1OC (stereo not given) was read as StopGo RLuc 11% and 2A firefly -4%.
`COc1ccc(OC)c(CCNC(=O)c2cc3c(=O)n(C)c4ccccc4c3n2C)c1` gave StopGo RLuc 53%[activator] and 2A firefly 58%[activator].
COc1ccc(NC(=O)c2sc3nc4n(c(=O)c3c2C)CCC4)c(OC)c1 was read as StopGo RLuc -16% and 2A firefly 10%.
`O=S(=O)(CCN1CCN(c2ccccc2)CC1)c1ccccc1` gave StopGo RLuc 6% and 2A firefly 21%.
For CCNC(=O)NC(=O)CN(Cc1ccccn1)C(C)C the results were StopGo RLuc 41%[activator] and 2A firefly 0%.
`CC(=O)C1=C(C)N(C2CCCCC2)C(=O)C1(NC(=O)c1ccc(C(C)(C)C)cc1)C(F)(F)F` (stereo not given) gave StopGo RLuc -13% and 2A firefly -10%.
COC(=O)c1cc2oc(C)cc2n1Cc1ccccc1Cl was read as StopGo RLuc 10% and 2A firefly 10%.
Cc1ccccc1-c1nc(CS(=O)(=O)CC(=O)NCc2cccc(Cl)c2)c(C)o1 was read as StopGo RLuc 19% and 2A firefly -7%.
`CCC(Sc1nc2nccnc2c(=O)n1Cc1ccc(OC)cc1)C(=O)NCc1ccc(C)cc1` (stereo not given) gave StopGo RLuc 12% and 2A firefly -11%.
Screening CCOC(=O)c1c(C)[nH]c(C)c1S(=O)(=O)N1CCC(C(=O)N2CCN(c3ccc(F)cc3)CC2)CC1 returned StopGo RLuc 19% and 2A firefly -16%.
Screening COc1ccc(C)cc1NC(=O)Cn1cc(S(=O)(=O)N2CCC(C)CC2)c2ccccc2c1=O returned StopGo RLuc 19% and 2A firefly -11%.
O=C(CCCc1nc2ccccc2o1)NCc1ccccc1Cl was read as StopGo RLuc 5% and 2A firefly 0%.
`Cc1cc(=O)n2nc(N3CCC(C(=O)Nc4c(C)cccc4C)CC3)sc2n1` gave StopGo RLuc -6% and 2A firefly 1%.
Screening O=C(CSc1ccccc1Cl)N1CCNC1=O returned StopGo RLuc 14% and 2A firefly 85%[activator].
`Cc1oc(-c2ccccc2F)nc1CSCC(=O)N1CCN(c2ccccc2)CC1` gave StopGo RLuc inconclusive and 2A firefly inconclusive.
For C=CCOC(=O)/C(C#N)=C\c1cc2ccccc2nc1N1CCOCC1 the results were StopGo RLuc -2%[1.06 µM] and 2A firefly 10%.
For Cc1nc(N2CCCC2)c2c(C(=O)Nc3cccc(C)c3C)c(C)oc2n1 the results were StopGo RLuc -6% and 2A firefly -24%.
For Cc1ccc(NC(=O)c2nc3ccccc3nc2N2CCCC2)cc1 the results were StopGo RLuc 24% and 2A firefly 11%.
CCOC(=O)c1ccccc1NC(=O)c1sc2nc(-c3ccc(F)cc3)cn2c1C was read as StopGo RLuc -9% and 2A firefly -13%.
`O=c1c(Cl)c(N2CCN(Cc3ccccc3)CC2)cnn1Cc1ccc(Cl)cc1` gave StopGo RLuc inconclusive and 2A firefly inconclusive.
CCOc1ccc(-c2nc(CNC(=O)Nc3ccc(OC)c(OC)c3)c(C)o2)cc1 was read as StopGo RLuc -5% and 2A firefly 31%[activator].

The final 6 compounds of the section before are carried over, then new ones follow.
For C=CCOC(=O)/C(C#N)=C\c1cc2ccccc2nc1N1CCOCC1 the results were StopGo RLuc -2%[1.06 µM] and 2A firefly 10%.
For Cc1nc(N2CCCC2)c2c(C(=O)Nc3cccc(C)c3C)c(C)oc2n1 the results were StopGo RLuc -6% and 2A firefly -24%.
For Cc1ccc(NC(=O)c2nc3ccccc3nc2N2CCCC2)cc1 the results were StopGo RLuc 24% and 2A firefly 11%.
CCOC(=O)c1ccccc1NC(=O)c1sc2nc(-c3ccc(F)cc3)cn2c1C was read as StopGo RLuc -9% and 2A firefly -13%.
`O=c1c(Cl)c(N2CCN(Cc3ccccc3)CC2)cnn1Cc1ccc(Cl)cc1` gave StopGo RLuc inconclusive and 2A firefly inconclusive.
CCOc1ccc(-c2nc(CNC(=O)Nc3ccc(OC)c(OC)c3)c(C)o2)cc1 was read as StopGo RLuc -5% and 2A firefly 31%[activator].
COc1ccc(Cl)cc1NC(=O)c1c(NCc2cccs2)sc2c1CCC(C)C2 (stereo not given) was read as StopGo RLuc -28% and 2A firefly -20%.
For CC1(C)Cc2c(c(N3CCOCC3)nc3sc(C(=O)Nc4ccc(Cl)cc4)c(N)c23)CO1 the results were StopGo RLuc -10% and 2A firefly -15%.
For CCOc1ccc(-c2nc(C#N)c(N3CCN(C(=O)c4cccs4)CC3)o2)cc1 the results were StopGo RLuc -2% and 2A firefly 0%.
`CC(C)C(=O)Nc1cccc(NC2=NS(=O)(=O)c3ccccc32)c1` gave StopGo RLuc 238%[activator] and 2A firefly 14%.
Screening O=C(c1cc(=O)c2cc(Cl)ccc2o1)N(Cc1ccccc1)c1ccccn1 returned StopGo RLuc 70%[activator] and 2A firefly -4%.
Screening Nc1cc(=O)nc(SCC(=O)Nc2cccc(Cl)c2)n1CCc1ccccc1 returned StopGo RLuc -4% and 2A firefly -22%.
COCc1nc2ccccc2n1Cc1ccc(C(C)(C)C)cc1 was read as StopGo RLuc -3% and 2A firefly 109%[activator].
For CCc1ccc(C(=O)COC(=O)C(NC(=O)c2ccc(CC)cc2)C(C)C)cc1 (stereo not given) the results were StopGo RLuc 25% and 2A firefly 0%.
CN(C)C(=O)c1ccccc1NS(=O)(=O)c1ccc(F)cc1 was read as StopGo RLuc 6% and 2A firefly 4%.
For CN(C)CCN1CCC(CN)CC1 the results were StopGo RLuc 4% and 2A firefly -6%.
For CCc1cccc(NC(=O)c2cnc(N3CCOCC3)c3ccccc23)c1 the results were StopGo RLuc -15% and 2A firefly -30%.
Screening CCCOc1c(Cl)cc(C2C3=C(CCCC3=O)OC3=C2C(=O)CCC3)cc1OCC returned StopGo RLuc 218%[activator] and 2A firefly 3%.
`O=C(CCS(=O)(=O)c1ccc2c(c1)NC(=O)CO2)NCCc1ccc(Cl)cc1` gave StopGo RLuc -18% and 2A firefly -2%.
`Cc1cccc(Cc2c(C)nc3nc(SCC(=O)NCc4ccc(F)cc4)nn3c2C)c1` gave StopGo RLuc 8% and 2A firefly 0%.
`CCCN(CCC)CCNC(=O)c1cc(Sc2ccc(Cl)cc2)nc2ccccc12` gave StopGo RLuc -15% and 2A firefly -15%.
For CCCCn1cc(S(=O)(=O)c2cc(C)ccc2C)c(=O)c2cc(F)c(F)cc21 the results were StopGo RLuc 16% and 2A firefly -6%.
`CC(C)c1ccccc1NC(=S)NCCc1ccc(Cl)cc1Cl` gave StopGo RLuc inconclusive and 2A firefly inconclusive.
N#Cc1cccc(NC(=O)C2CCN(c3nc(-c4ccc(Cl)cc4)no3)CC2)c1 was read as StopGo RLuc 0% and 2A firefly 1%.
Screening CCOc1ccc(C(=O)Nc2cccc(C(=O)OCc3cc(=O)n4nc(C5CC5)sc4n3)c2)cc1 returned StopGo RLuc 0% and 2A firefly inconclusive.
Screening CCCOc1ccccc1OCC(=O)Nc1ccc2oc(C)nc2c1 returned StopGo RLuc 214%[activator] and 2A firefly 61%[activator].
`O=C(COc1ccc(S(=O)(=O)N2CCCCC2)cc1)Nc1ccccc1Sc1ccccc1` gave StopGo RLuc 6% and 2A firefly 15%.
Cc1cc(C)cc(-n2c(SCC(=O)NCc3ccc(F)cc3)nc3c([nH]c4ccccc43)c2=O)c1 was read as StopGo RLuc 7% and 2A firefly 11%.
`CC1(C)O[C@@H]2[C@@H](CO[C@@]3(COS(N)(=O)=O)OC(C)(C)O[C@@H]23)O1` gave StopGo RLuc -10% and 2A firefly -20%.
CC(C)c1nc2cc(NC(=O)CNC(=O)c3ccc(Br)o3)ccc2o1 was read as StopGo RLuc 10% and 2A firefly 174%[activator].
O=Cc1c[nH]c2cc(F)ccc12 was read as StopGo RLuc 13% and 2A firefly 5%.
`CCOC(=O)c1cc(OC(=O)c2ccccc2OC)n(-c2ccccc2)n1` gave StopGo RLuc -10% and 2A firefly 49%[activator].
`CCOc1ccc(NC(=O)CSc2oc(-c3cccs3)nc2S(=O)(=O)c2ccc(Cl)cc2)cc1` gave StopGo RLuc -16% and 2A firefly -14%.
For Cc1ccc(-n2c(=O)c3c4c(sc3n(Cc3cccc(Cl)c3)c2=O)CCC4)cc1C the results were StopGo RLuc -5% and 2A firefly -13%.
Screening Cc1ccccc1-c1nc(CS(=O)(=O)CC(=O)Nc2cccc(C(F)(F)F)c2)c(C)o1 returned StopGo RLuc 17% and 2A firefly -4%.
CCCCCCCOc1ccc(COC(=O)c2ccco2)cc1 was read as StopGo RLuc 18% and 2A firefly 0%.
For COc1ccc(C(=O)c2oc3ccccc3c2NC(=O)c2cc(=O)c3ccc(C)cc3o2)cc1Cl the results were StopGo RLuc -17% and 2A firefly -13%.
`COc1ccc(Cl)cc1NC(=O)Cn1nnc2sc(-c3ccccc3)cc2c1=O` gave StopGo RLuc -8% and 2A firefly -11%.
`Cc1ccc2c(CN(C)Cc3nc4ccccc4c(=O)[nH]3)cc(=O)oc2c1C` gave StopGo RLuc 41%[activator] and 2A firefly 0%.
c1ccc(-c2nnc(NN=C3CCCC3)c3ccccc23)cc1 was read as StopGo RLuc 20% and 2A firefly -5%.
Screening O=C(CCc1ncc(-c2ccc(Cl)cc2)o1)Nc1ccc(F)cc1 returned StopGo RLuc 4% and 2A firefly 19%.
For O=C(Nc1cccc(S(=O)(=O)N2CCOCC2)c1)c1sc2ccccc2c1Cl the results were StopGo RLuc 0% and 2A firefly 42%[activator].
`Cc1ccc(-n2c(=O)c3c4c(sc3n(Cc3ccccc3F)c2=O)CCC4)cc1C` gave StopGo RLuc 6% and 2A firefly 4%.
CCN(C(=O)CSc1nc2ccccc2n1Cc1ccc(C(=O)OC)cc1)c1ccccc1 was read as StopGo RLuc -10% and 2A firefly -11%.
For CCCn1c2ccccc2c2cnn(CC(=O)NCCCN3CCCCC3)c(=O)c21 the results were StopGo RLuc -8% and 2A firefly -20%.
For COCCn1c(=O)[nH]c2cc(C(=O)Nc3cccc(C(C)=O)c3)ccc2c1=O the results were StopGo RLuc -11% and 2A firefly -4%.
For CCCCNC(=O)COC(=O)Cc1nn(C)c(=O)c2ccccc12 the results were StopGo RLuc -31% and 2A firefly -24%.
For Cc1ccc2ncc(C(=O)NCc3ccccc3Cl)c(=O)n2c1 the results were StopGo RLuc -9% and 2A firefly -5%.
COc1ccc(CCNC(=O)c2oc(=O)c3ccccc3c2-c2ccccc2)cc1OC was read as StopGo RLuc 6% and 2A firefly -7%.
`CCCCNc1oc(-c2ccc(COc3ccc(OC)cc3)o2)nc1C#N` gave StopGo RLuc -13% and 2A firefly 64%[activator].
Screening CCOc1ccccc1NC(=O)c1cc2c(=O)[nH]c3ccccc3c2s1 returned StopGo RLuc -5% and 2A firefly -11%.
`CCN(C(=O)CN1C(=O)COc2ccc(S(=O)(=O)N3CCOCC3)cc21)c1cccc(C)c1` gave StopGo RLuc -4% and 2A firefly -18%.

These rows are one share of the data; the hit share may differ from the screen's.
